Sfp PPTase inh: inhibitors of Bacillus subtilis Sfp phosphopantetheinyl transferase. Biochemical Sfp PPTase activity, qHTS. Potency, µM, inactives show max response, negative = inhibition, actives largely listed as inhibitors. AID 1490. hit rate 3.5% among 310,000. Q9F4F7; active = well fitted inhibition curve with a large enough effect; inconclusive = small, poorly fitted or top-dose-only effect, or another doubt; inactive = no such curve, though single readings can be large or run the other way;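 also: the enzyme is Sfp with the accession as filed and its product quenches rhodamine fluorescence; potency is read from the fitted curve at half-maximal effect; 0% = enzyme reaction without inhibitor and -100% = no enzyme wells; top concentration of the series not given in the record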
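Fluorescence-quenching assay: 15 nM Sfp-PPTase preincubated 15 min at room temperature with compound, then 5 uM rhodamine-CoA and 12.5 uM BHQ-2-labelled YbbR peptide added. Fluorescence (ex 525/em 598 nm) read at start and after 30 min; difference gives rate.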
PINK1 modulator: changes PINK1 expression; PINK1 immunofluorescence, high-content cytometry, 24 h; hit rate 0.2% among 410,000; AID 624263; Potency, µM (top dose mostly 76.6 µM), for the others: at the highest dose activation (PINK1 increase), actives largely listed as activators; active = well fitted activation curve with a large enough effect; inconclusive = small, poorly fitted or top-dose-only effect; inactive = flat fitted curve, though single readings scatter; cell line not stated here;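 also: potency is read from the fitted curve at half-maximal effect; % of control where 0% means no effect; nearly all actives have a fitted effect of over 65% in size; a mitochondrial uncoupler was the plate control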
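Readout is PINK1 immunofluorescence, quantified alongside mitochondrial, cell and nuclear markers by laser-scanning microplate cytometry. Cells from a stable line were exposed to compound titrations (5 concentrations) for 24 hours, with CCCP controls.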
ClpP mod: qHTS Assay for Activators of ClpP; purified B. subtilis ClpP, FRET peptide cleavage, 20 min; hit rate 1.9% among 340,000; ATP-dependent Clp protease proteolytic subunit (Bacillus subtilis (strain 168)), P80244; Potency, µM (top dose mostly 57.5 µM), for the others: at the highest dose activity change, negative = active; active = well fitted falling curve with a large enough effect; inconclusive = small, poorly fitted or top-dose-only effect; inactive = no such curve, though single readings can be large or run the other way; also: potency is read from the fitted curve at half-maximal effect; the source files actives as falling curves though it sought activators and does not explain the sign; nearly all actives have a fitted effect of over 65% in size; many hits overshoot -100%
Target sequence (P80244 whole entry, looked up): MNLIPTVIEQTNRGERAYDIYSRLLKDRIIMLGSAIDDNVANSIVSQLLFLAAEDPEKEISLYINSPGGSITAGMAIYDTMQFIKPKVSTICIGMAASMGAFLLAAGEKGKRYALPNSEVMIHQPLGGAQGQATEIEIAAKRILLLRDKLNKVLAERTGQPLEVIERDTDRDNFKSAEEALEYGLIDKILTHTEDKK
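ClpP 10 microg/mL final, pH 8 Tris/KCl buffer with BSA, glycerol, Tween-20; compound pinned in; FRET-FV substrate; RT 20 min; Ex320/Em430; ΔFRET vs ADEP 5.8 microM, DMSO, no enzyme.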
Menin MLL FP FL: menin-MLL binding inhibition, fluorescein peptide; AID 1766; FP activity change, % at 61.4 µM; 290,000 tested, under 10 active; Fluorescence polarization, fluorescein-MLL peptide displacement from menin; inconclusive = falling polarisation curve, or a change in total fluorescence; inactive = total fluorescence flat and polarisation flat or rising; no compound was filed as active; the % refers to the polarisation; negative = inhibition;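 also: % of control where 0% means no effect; inhibitors lower the polarisation; unlabelled MLL peptide was the positive control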
D2 ag: agonists of human D2 dopamine receptor (beta-arrestin); DiscoveRx PathHunter D2 beta-arrestin, luminescence, 90 min; 100% = 57 uM dopamine signal; activation, % (concentration not given with the values); hit rate 0.084% among 360,000; in the data active = activation above about 40%; inconclusive = about 15% to 40%; inactive = below about 15%; also: compound concentration not given in the record; the text of the record calls up to 30% inactive
Target sequence (P14416 whole entry, looked up): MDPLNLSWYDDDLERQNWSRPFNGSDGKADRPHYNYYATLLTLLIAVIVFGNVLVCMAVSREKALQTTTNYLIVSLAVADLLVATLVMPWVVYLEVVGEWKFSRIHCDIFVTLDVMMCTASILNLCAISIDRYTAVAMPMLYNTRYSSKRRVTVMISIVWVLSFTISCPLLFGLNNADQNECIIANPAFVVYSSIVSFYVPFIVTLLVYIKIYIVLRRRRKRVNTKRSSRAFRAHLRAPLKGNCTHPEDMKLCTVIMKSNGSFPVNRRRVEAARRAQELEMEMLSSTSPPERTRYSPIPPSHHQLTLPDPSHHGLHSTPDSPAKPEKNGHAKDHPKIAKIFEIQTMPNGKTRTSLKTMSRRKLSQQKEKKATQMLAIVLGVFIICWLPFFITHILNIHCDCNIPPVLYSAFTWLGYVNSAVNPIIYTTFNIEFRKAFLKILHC
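DiscoveRx PathHunter D2 beta-arrestin cells (2,100/well) attached overnight, then compound-stimulated 90 min at 37 C in HBSS/10 mM HEPES/0.1% Tween-20 buffer; beta-galactosidase complementation read by luminescence after 1 h at ambient temperature. Dopamine 57 uM final (EC100) as control.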
gsp agonist: agonists of gsp mutant (McCune-Albright syndrome); AID 624287; Potency, µM (series often up to 76.9 µM), for inactives: top-dose activation (cAMP increase), actives largely listed as activators; hit rate 0.13% among 340,000; gsp mutant cells, cAMP HTRF, 30 min; control for the full effect not named in the record; active = well fitted activation curve with a large enough effect; inconclusive = small, poorly fitted or top-dose-only effect, or another doubt; inactive = no such curve, though single readings can be large or run the other way; cell line not stated here;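 also: phosphodiesterase inhibitor Ro 20-1724 added with compounds to block cAMP breakdown; potency is read from the fitted curve at half-maximal effect; nearly all actives have a fitted effect of over 60% in size; about a fifth of the inactives were tested at one dose only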
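Cells stably selected in G418 were plated at 2000/well, grown 16-24 hr, then given compounds in DMSO with the PDE inhibitor […] (300 uM solution added) for 30 min at 37C; cAMP was read by HTRF.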
gsp antag: antagonizes gsp, the McCune-Albright syndrome mutation | gsp-mutant cells, cAMP HTRF, 30 min; control for the full effect not named in the record | Potency, µM (top dose mostly 76.9 µM), for inactives: top-dose activity change, negative = inhibition, most hits filed as inhibitors | hit rate 0.4% among 340,000 | AID 624288; active = falling curve of any shape with a large fitted effect; inconclusive = falling curve, mostly with a smaller effect; inactive = flat or rising curve; cell line not stated here;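 also: intracellular cAMP measured with PDE inhibitor Ro 20-1724 present during compound exposure; potency is read from the fitted curve at half-maximal effect; % is scaled to controls: 0 for no effect and ±100 for the full control effect; nearly all actives have a fitted effect of over 65% in size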
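Measurement of cellular cAMP by homogeneous time-resolved fluorescence following a 30 min compound exposure at 37C. The PDE inhibitor […] was present throughout; the assay buffer was DPBS with 0.05% BSA and 0.005% Tween 20.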
The depositor's hits bear a star; ? = inconclusive; nt = no result given; & = joins results of further samples; [ ] = remark or other dose.

cpd	mol	Sfp PPTase inh	PINK1 modulator	ClpP mod	Menin MLL FP FL	D2 ag	gsp agonist	gsp antag
1	COc1ccc(NC(=O)COC(=O)CN2C(=O)c3ccccc3C2=O)cc1	nt	2.5%	1.2%	nt	3.0	-9%[15.4 µM]	-4%
2	CCC1(C)N(O)C(C)(C)C(c2ccc(F)cc2)=[N+]1[O-] (configuration not stated)	6%	-1.5%	1.5%	3.1	-0.3	-54%[inhibitor]	14%
3	COc1cccc(N2CC(NC(=O)c3cccc4ccccc34)CC2=O)c1 (configuration not stated)	nt	0.5%	nt	nt	-1.0	-7%[15.4 µM]	-3%
4	C=CCOc1ccc(/C(O)=C2/C(=O)C(=O)N(CCCn3ccnc3)C2c2ccco2)cc1 (configuration not stated)	22%	-1.0%	0.1%	8.4	3.4	?	8%
5	CCCNCc1nnc(-c2ccccc2Cl)o1	10%	6.2%	nt	6.0	-1.8	-8%	9%
6	O=S(=O)(Cc1cc(Sc2ccccc2)nc(-c2ccccc2)n1)c1ccccc1	-3%	1.5%	-2.3%	-2.6	-5.2	4%	-6%
7	CCN(CC)S(=O)(=O)c1ccc(NS(=O)(=O)c2ccc(O)c([N+](=O)[O-])c2)cc1	13%	0.0%	-3.5%	5.2	-4.8	0%	-16%
8	Cc1cc(C)n2nc(C(=O)OCC(=O)Nc3ccc(C)c(F)c3)nc2n1	nt	-0.4%	-3.5%	nt	2.3	-26%	0%
9	CCOc1ccc(-c2cccc(NS(=O)(=O)c3ccccc3[N+](=O)[O-])c2)nn1	nt	1.5%	nt	nt	-2.0	8%[15.4 µM]	-18%
10	Cc1nn(C)cc1S(=O)(=O)N1CCN(Cc2ccccc2Cl)CC1	14%	0.1%	nt	-7.2	4.7	-7%[15.4 µM]	nt
11	C/C(=N\NC(=O)c1cc(C)nc2ccccc12)c1cccc(Cl)c1	15%	4.3%	1.0%	nt	1.2	-10%	1%
12	CN/N=C(\Cc1nc2ccccc2[nH]1)c1ccc([N+](=O)[O-])cc1	22µM*	3.2%	1.3%	-2.1	8.3	22%	-16%
13	CC(C)N(Cc1nccn1C)C(=O)CC1C(=O)NCCN1Cc1ccc(F)c(F)c1 (configuration not stated)	-6%	-0.2%	-9.1%	nt	-3.1	19%	7%
14	CC/C(=N\NC(=O)Nc1nonc1N)c1ccc(OC)c(OC)c1	13%	-1.3%	nt	?	-0.6	5%	8%
15	O=C(Nc1ccc(Br)cc1)c1cccn1-c1ncc(C(F)(F)F)cc1Cl	34%[activator]	5.0%[38.3 µM]	-3.4%	1.9	-2.2	8%	7%
16	COc1ccc(OC)c(CNC(=O)CCSCc2ccc(F)cc2Cl)c1	-7%	1.1%	-3.0%	-8.6	-8.9	17%	-8%
17	COc1ccc(NC(=O)CCC(=O)OCC(=O)c2ccc(Oc3ccc([N+](=O)[O-])cc3)cc2)cc1	-14%	-0.8%	nt	-1.1	-8.0	25%[15.4 µM]	-5%
18	NS(=O)(=O)c1ccc(CCNC(=O)C(=O)NCC2OCCN2C(=O)c2ccc3c(c2)OCO3)cc1 (configuration not stated)	12%	0.1%	nt	-0.4	-6.4	-3%[15.4 µM]	5%
19	COC(=O)c1cccc(NC(=O)CSc2nnc(C)n2Cc2ccccc2)c1	14%	4.6%	0.6%	-1.0	0.6	-75%[inhibitor]	-8%
20	COc1c(C(C)C)oc2cc3oc(=O)ccc3cc12	9%&11%	0.9%&2.6%	-2.9%	5.0&1.9	-19	-30%	-1%
21	CC(C)=CCC(C)(C)C1OCCN1C(=O)Nc1ccccc1 (configuration not stated)	9%	-0.8%	-1.9%	-0.4	-3.8	-53%[inhibitor]	11%
22	CCCCNC(=O)C1CCC(CNc2c(N3CCC(C)CC3)c(=O)c2=O)CC1 (configuration not stated)	11%	-0.4%	nt	-1.2	-2.9	4%[15.4 µM]	2%
23	CC(C)c1ccc(COC(=O)CN2C(=O)NC3(CCCCC3C)C2=O)cc1 (configuration not stated)	nt	2.6%	nt	nt	2.4	9%[15.4 µM]	-25%
24	COc1ccc(C(C[N+](=O)[O-])c2c(-c3ccccc3)cc3ccccn23)c(OC)c1 (configuration not stated)	45µM*	9.9%	-8.1%	3.8	-4.8	-35%	17%
25	Brc1ccc2[nH]c3nc(SCCN4CCOCC4)nnc3c2c1	4%	2.3%&2.9%	-2.3%	1.2	1.7&-3.7	22%	-1%[15.4 µM]
26	Cc1ccc(-c2noc(CN(C(=O)CCCCCN3C(=O)c4ccccc4C3=O)C(C)C)n2)cc1	2%	-2.1%	-0.1%	-1.7	-1.3	0%	-16%
27	CCOc1cc(-c2cc(N)n[nH]2)cc(OCC)c1OCC	16%	2.6%	-4.6%	2.9	-3.4	-38%[inhibitor]	9%
28	COc1ccccc1NC(=O)/C=C\C(=O)O	16%	-0.9%	-1.5%	0.4	-4.6	-20%	-1%
29	O=C(Nc1ccc(S(=O)(=O)Nc2ncccn2)cc1)c1cccc([N+](=O)[O-])c1	nt	1.2%	-2.9%	nt	-1.5	4%	nt
30	CC1(C)CC(=O)C2=C(C1)NC(=O)CC2c1ccc(N(CCC#N)CCC#N)cc1 (configuration not stated)	-4%	-4.7%[38.3 µM]	0.9%	3.5	3.5	-18%	4%
31	Cc1cc(C)c2nc(-c3ccccn3)cc(C(=O)Nc3ccc(S(=O)(=O)Nc4onc(C)c4C)cc3)c2c1	35µM*	4.5%	nt	-6.4	2.9	0%	-31%
32	CCOC(=O)C1(Cc2cccc(Cl)c2)CCCN(C(=O)CCOC)C1 (configuration not stated)	0%	2.2%	nt	3.1	-1.9	-10%[15.4 µM]	3%
33	CCCc1cc(=O)oc2cc(C)c(CN3CCCC3)c(O)c12	?	1.6%	-10.0%	7.0	0.2	-21%	-11%
34	COc1ccc(CN2C(=O)c3ccccc3C2=O)cc1C(=O)Nc1ccccc1N1CCOCC1	10%	1.1%	nt	3.2	6.7	-11%[15.4 µM]	-1%
35	CCCCn1nc2cc(C(=O)NC3CCc4ccccc43)ccc2c1OCC (configuration not stated)	5%	0.8%	3.5%	2.6	-0.3	nt	-2%
36	Cc1ccc(S(=O)(=O)Nc2cccc(S(=O)(=O)N3CCCC3)c2)cc1C	nt	-0.4%	-1.0%	nt	3.0	-39%[inhibitor]	-5%
37	CC(C)c1ccc(C(=O)Nc2ccc(S(=O)(=O)NC3=NCCCCC3)cc2)cc1	nt	-0.6%	-4.7%	nt	-2.1	-13%	nt
38	Cc1occc1-c1nnc(SCC(=O)N2CCCC(C)C2)o1 (configuration not stated)	nt	0.5%	-0.8%	nt	-0.1	-3%	-1%
39	CC(=O)Nc1cccc(-c2ccnc3c2CC(C(=O)NCc2ccncc2)O3)c1 (configuration not stated)	nt	3.6%	?	nt	-7.8	nt	nt
40	CC(C(=O)N1CCCC1)N1CCN(S(=O)(=O)c2ccc(OC(F)(F)F)cc2)CC1 (configuration not stated)	nt	-0.6%	-4.2%	nt	-6.3	20%	4%
41	Cc1ccccc1-c1noc(-c2ccccc2C(=O)NCC2CCCO2)n1 (configuration not stated)	22%	1.2%	1.5%	3.1	-0.5	0%	9%
42	COc1ccc(C(=O)NCC2CCCO2)cc1S(=O)(=O)NCc1ccc(Cl)cc1 (configuration not stated)	nt	-0.8%	-4.4%	nt	0.7	-19%	nt
43	COCCNC(=O)c1cc2c(c(-c3cccc(-c4cccc(OC)c4)c3)n1)[C@H](CCO)N(S(=O)C(C)(C)C)C2 (some centres not stated)	nt	-0.1%	-1.2%	nt	-3.7	nt	nt
44	COc1cccc(C(=O)c2ccncc2C(=O)O)c1OC	nt	1.1%	-1.4%	nt	-3.0	-1%	nt
45	COc1ccccc1CCC(=O)OCC(=O)NC1CCCCC1	5%	1.0%	-0.3%	nt	-6.2	-15%	4%
46	Cc1cccc(OCCNC(=O)CSc2ccc(C(F)(F)F)cc2[N+](=O)[O-])c1	-6%	8.3%	1.4%	2.8	-2.8	-8%	-2%
47	Oc1ccc(Nc2nc(-c3ccccc3)nc3ccccc23)cc1	-1%	-0.2%	-5.3%	-1.9	-3.9	5%[15.4 µM]	-10%
48	O=C(Cc1c(F)cccc1Cl)OCC(=O)N1CCN(c2ccccc2)CC1	nt	-0.4%	-12%	nt	-0.4	-33%[inhibitor]	-3%
49	COc1ccc(C(=O)NCCCN2CCCC2=O)cc1S(=O)(=O)N1CCOCC1	nt	0.2%	-1.0%	nt	-1.7	-11%	nt
50	CC(=O)c1c[nH]c(C(=O)NCC2CCCO2)c1 (configuration not stated)	9%	4.8%[38.3 µM]	-0.6%	-0.6	-1.8	20%	6%

Remaining list, next part.
cpd	mol	Sfp PPTase inh	PINK1 modulator	ClpP mod	Menin MLL FP FL	D2 ag	gsp agonist	gsp antag
51	CC(NS(=O)(=O)c1ccccc1)C(=O)Nc1ccc(S(N)(=O)=O)cc1 (configuration not stated)	-6%	1.1%[38.3 µM]	-0.5%	1.0	-1.6	-46%[inhibitor]	5%
52	O=C1CCCCC1C(O)(C(=O)c1ccccc1)c1ccccc1 (configuration not stated)	nt	2.2%	-0.2%	nt	-8.5	3%	nt
53	COC(=O)c1c(C)[nH]c(C(=O)CC#N)c1C	2%	2.7%	nt	?	-4.4	-57%[inhibitor]	3%
54	CC(C)NC(=O)C(C)N1CCN(S(=O)(=O)c2ccc3ccccc3c2)CC1 (configuration not stated)	-29%	0.8%	nt	-1.1	-4.1	1%[15.4 µM]	1%
55	Cc1ccc(NC(=O)Cn2nc(-c3ccccc3)nc2-c2ccccc2)c(C)c1	?	14%	0.5%	2.2	-1.9	2%	4%
56	Cc1c(C(=O)NCc2ccc3c(c2)OCO3)sc(=O)n1Cc1ccc(S(=O)(=O)N(C)C)cc1	nt	0.4%	-6.9%	nt	-0.9	nt	nt

High-throughput results from PubChem.
